# Compound activity deposited in PubChem BioAssay by several laboratories.
# INS promoter inh: TRM-6 insulin promoter activity inhibition. TRM-6 cells (human fetal islet line), insulin promoter-eGFP reporter, imaging; reporter expression induced with tamoxifen. inhibition, % at 2 µM. 130,000 tested, 0.9% active. AID 1273;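 active = inhibition above the mean plus 3 SD, with well images judged a real hit on visual review, cut at about 60% in these data, passing the limit was not always enough; inconclusive = inhibition over the cutoff but images rejected on review; inactive = inhibition not above the cutoff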
# RGS16-Gao: RGS16-Galphao interaction regulator (human); AID 1441; O15492+P09471; bead-based flow cytometry RGS16-Galphao binding, fluorescence; actives lie on both sides; binding response (% of control), % at 10 µM; 220,000 tested, 0.38% active;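 active = below 25% or above 175%, edge rows of some plates excepted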;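 note: Galphao activated by GDP with aluminum fluoride before binding; 100% = wells without compound and 0% = beads without RGS; some results beyond the cut were filed as inactive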
# Target sequence (O15492 whole entry, looked up): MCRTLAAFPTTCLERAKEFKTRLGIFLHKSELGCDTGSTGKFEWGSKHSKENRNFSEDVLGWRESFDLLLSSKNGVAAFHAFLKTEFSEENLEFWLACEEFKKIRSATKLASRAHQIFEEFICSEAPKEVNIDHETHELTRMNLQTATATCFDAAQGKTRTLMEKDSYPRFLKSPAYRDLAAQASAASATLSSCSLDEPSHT
# Target sequence (P09471 whole entry, looked up): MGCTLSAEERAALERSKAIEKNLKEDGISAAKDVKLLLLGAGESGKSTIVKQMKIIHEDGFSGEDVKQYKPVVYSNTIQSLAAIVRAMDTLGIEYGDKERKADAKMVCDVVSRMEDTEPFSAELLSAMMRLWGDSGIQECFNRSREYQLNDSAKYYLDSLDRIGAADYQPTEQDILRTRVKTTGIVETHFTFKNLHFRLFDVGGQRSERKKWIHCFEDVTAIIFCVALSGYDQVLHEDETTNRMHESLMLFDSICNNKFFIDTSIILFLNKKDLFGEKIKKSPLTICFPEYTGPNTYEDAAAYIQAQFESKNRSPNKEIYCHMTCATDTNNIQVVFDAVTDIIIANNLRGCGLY
# PKD1 inh: inhibitors of human PKD1 kinase. Q15139. PKD1 kinase fluorescence polarization assay. inhibition, %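 (about 10 µM by stock and volumes)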. 200,000 tested, 0.056% active;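 active = inhibition of 50% or more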;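 note: controls were vehicle for no effect and a reference inhibitor for full effect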
# HSV replic up: increases HSV replication in cells; HSV replication augmentation in cells, fold increase; maximum fold increase; 220,000 tested, 0.005% active;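 active = peak rise of 1.5-fold or more in the series; inconclusive = self-fluorescent or not available for retest; tested in PC3 cells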;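 note: first round at 10 µM; read as green reporter fluorescence; hits show the peak of a series up to 25 µM; 1 = signal of infected wells without compound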
# GALR2 ag: GALR2 (human) receptor agonism. GALR2-expressing cells, agonist activation read-out. activation, %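 (tested at 5 µM)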. 140,000 tested, 0.48% active;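 active = above mean plus 3 SD of all compounds, about 5% in these data, not always enough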;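 note: 0% = vehicle buffer wells and 100% = reference agonist at full effect; tested in CHO reporter cells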
# Target sequence (O43603 whole entry, looked up): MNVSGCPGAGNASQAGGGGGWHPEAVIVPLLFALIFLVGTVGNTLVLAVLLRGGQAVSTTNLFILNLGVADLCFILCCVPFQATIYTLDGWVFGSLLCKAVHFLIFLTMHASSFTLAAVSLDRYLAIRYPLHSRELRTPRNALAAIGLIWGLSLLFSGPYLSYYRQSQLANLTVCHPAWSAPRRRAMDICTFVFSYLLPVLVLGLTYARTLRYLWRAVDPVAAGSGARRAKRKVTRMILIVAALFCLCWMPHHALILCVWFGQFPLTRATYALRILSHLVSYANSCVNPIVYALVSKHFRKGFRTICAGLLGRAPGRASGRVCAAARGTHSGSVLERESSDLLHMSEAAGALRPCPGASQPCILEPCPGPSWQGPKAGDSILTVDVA
# INS promoter inh cell count: recorded beside INS promoter inh, whose call it bears; normalized cell count, %; measured here: cell count, toxicity; reference of the scale not given here;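 cells exposed to compound for 48 h; stained nuclei by imaging scaled within each plate; lower means fewer cells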
# HSV replic up primary fold: also measured in HSV replic up; calls as there; fold increase; compound at 10 µM; measured here: primary screen fold increase 10 uM; tested in PC3 cells;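 GFP signal in the first replicate; 1 = infected wells without compound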
# * hit, by the source's call; i = inactive; ? = inconclusive; · = not tested or not shown.
SMILES,INS promoter inh,INS promoter inh cell count,RGS16-Gao,PKD1 inh,HSV replic up,HSV replic up primary fold,GALR2 ag
CCOC(=O)C1CCCN(C(=O)Cn2sc3nc(C)cc(C)c3c2=O)C1 (stereo not given),·,·,17*,-1,i,0.92,-3.6
CCOC(=O)c1c(NC(=O)c2cc(C)on2)c2cc([N+](=O)[O-])ccc2n1C,·,·,99,·,i,0.77,·
CCn1c(CNC(=O)COc2ccc(C(C)C)cc2)nnc1SCC(=O)Nc1ccccc1C(C)C,·,·,97,-8,i,1,-1.0
O=C(CN1CCCCC1)NN(Cc1ccccc1)c1ccccc1,-89,95,108,-6,i,0.98,·
Cc1nnc(SCC(=O)NC(=O)NC(C)C)s1,36,167,102,-1,i,0.92,·
O=C1CC(N2CCN(Cc3ccc(Cl)cc3)CC2)C(=O)N1CCc1ccccc1 (stereo not given),·,·,101,·,i,0.75,·
Cc1nc(C)c(-c2csc(NCCc3ccccc3)n2)s1,-29,219,92,4,i,0.96,-1.4
O=C(Oc1ccc(N(Cc2cccs2)C2=NS(=O)(=O)c3ccccc32)cc1)c1ccco1,i,82,84,-7,i,0.99,-2.1
CC1CC(=O)c2cnc(N3CCOCC3)nc2C1 (stereo not given),-20,175,101,7,i,0.87,-0.7
CN(C)c1ccc(NS(=O)(=O)c2ccc(Cl)cc2)cc1,20,107,127,-11,i,0.96,-1.1
COc1ccc(C2CC(c3c(-c4ccccc4)c4cc(Cl)ccc4[nH]c3=O)=NN2S(C)(=O)=O)cc1OC (stereo not given),15,134,65,5,i,0.78,0.6
Cc1ccc(NC(=O)C(=O)NCCc2c[nH]c3ccccc23)c(C)c1,22,79,96,-6,i,0.92,·
CC12CCC(C(=O)N3CCCc4ccccc43)(CC1=O)C2(C)C (stereo not given),-27,176,99,-5,i,1,-1.4
O=C(Nc1ccccc1C(F)(F)F)N1CCCC(O)C1 (stereo not given),·,·,106,2,i,0.94,-2.1
Cc1ccccc1Nc1nnc(SCC(=O)c2c(N)n(C)c(=O)n(C)c2=O)s1,-27,165,104,-6,i,0.96,·
CCOC(=O)c1c(C)cc(C)[nH]c1=O,·,·,104,-5,i,1,·
COC(=O)c1cn(NC(=O)Cc2ccccc2Br)c(=O)c2ccccc12,13,80,71,4,i,1,·
CCOC(=O)C1C(=O)NC(N2CCOCC2)=NC1c1ccco1 (stereo not given),5,108,99,2,i,0.84,-1.7
CC1(C)CC(=O)C=C(NCCN2CCN(C(=O)Nc3ccccc3)CC2)C1,-93,97,103,-6,i,0.91,-0.9
CC1CN(c2nc3ccccn3c(=O)c2/C=C(\C#N)C(N)=O)CC(C)O1 (stereo not given),·,·,105,·,i,1,·
COc1ccc(S(=O)(=O)n2nc(-c3cc(OC)c(OC)c(OC)c3)cc2N)cc1OC,·,·,106,2,i,0.95,-0.4
O=C(NCCNc1ccc([N+](=O)[O-])cc1)c1ccccc1Br,60,59,85,-2,i,1.1,-1.3
CCOC(=O)Cc1csc(NC(=O)c2sc3nc4c(C)cc(C)cc4cc3c2N)n1,-21,64,97,-6,?,·,-1.9
COCCNC(=O)C(OC(=O)c1cc2oc(C)cc2n1C)C(C)C (stereo not given),-46,170,99,-5,i,0.9,-0.4
O=C(Cn1c(=O)c2sccc2n(Cc2ccc([N+](=O)[O-])cc2)c1=O)NCCc1ccccc1,17,102,96,1,i,1,-1.8
COc1ccc(NC(=O)CN2CCCCC2)c([N+](=O)[O-])c1,0,134,110,6,i,1,-3.6
O=C(Cc1ncon1)Nc1ccc(F)c(F)c1F,·,·,103,·,i,1.1,·
Cn1cc(S(=O)(=O)NCCc2ccccc2)c(=O)n(C)c1=O,·,·,101,·,i,1.1,·
O=C(NCc1cccs1)c1nn2cccnc2c1Cl,-19,91,100,-7,i,0.93,0.2
O=C(Nc1ccc2c(c1)OCCO2)C1CCN(S(=O)(=O)c2ccc3c(c2)OCCO3)CC1,-12,97,99,-7,i,1,-0.8

# Single values from above.
# RGS16-Gao with O=C(NCc1cccs1)c1nn2cccnc2c1Cl reads 100
# RGS16-Gao with Cn1cc(S(=O)(=O)NCCc2ccccc2)c(=O)n(C)c1=O reads 101
# GALR2 ag with O=C(NCCNc1ccc([N+](=O)[O-])cc1)c1ccccc1Br reads -1.3

# Continuation:
SMILES,INS promoter inh,INS promoter inh cell count,RGS16-Gao,PKD1 inh,HSV replic up,HSV replic up primary fold,GALR2 ag
CCn1c(=O)cc(OCC(=O)N2CCc3ccccc32)c2ccccc21,·,·,104,-2,i,1.1,-0.3
COc1ccc(S(=O)(=O)N(Cc2ccccc2)Cc2nc3ccccc3c(=O)[nH]2)cc1,·,·,99,5,i,0.86,-0.9
C=CCN1C(=O)/C(=C\c2cccs2)C(C(=O)OC)=C1C,·,·,101,8,i,0.93,-1.7
CC(=O)c1ccc(NC(=O)C2CCC(C)(C(=O)O)C2(C)C)cc1 (stereo not given),30,118,98,-15,i,0.99,0.1
COc1ccc(N(C(C)=O)C2C=CS(=O)(=O)C2)c(OC)c1 (stereo not given),10,111,95,1,i,1.1,0.5
Cc1ccc(-n2ccc(-c3nn(-c4ccccc4)ccc3=O)n2)cc1,-100,81,106,-5,i,0.89,·
CCOc1ccc(OCCSc2nnnn2-c2ccccc2)cc1,71,96,106,-10,i,1,-1.3
CC(=O)Nc1ccc(C)c(NS(=O)(=O)c2cccc(C(F)(F)F)c2)c1,·,·,102,·,i,1.2,·
CCCCn1c(O)c(N=NC(=O)c2ccco2)c2ccccc21,-140,146,110,-8,i,0.87,-0.1
Cc1ccc(/C=N/N2CCCCC2)o1,·,·,108,-3,i,1.1,·
CCc1nc(N2CCC3(CC2)OCCO3)c2nnn(Cc3ccccc3)c2n1,0,134,107,-5,i,1,·
CCOC(=O)C(CC)Sc1nnc2cc(C)c3ccccc3n12 (stereo not given),-12,60,103,1,i,0.9,-2.0
O=C(c1cc(COc2c(F)cccc2F)on1)N1CCSCC1,·,·,97,·,i,1,·
CC(=O)Nc1ccc(S(=O)(=O)Oc2ccc(/C=N/N=C3/NC(=O)C(CC(=O)O)S3)cc2)cc1 (stereo not given),·,·,102,3,i,0.93,·
COC(=O)C(Cc1c[nH]c2ccccc12)N1CCS(=O)(=O)CC1 (stereo not given),26,122,99,0,i,0.89,·
COc1ccc(Cc2nnc(SCC(=O)N3CCCC(C)C3)o2)cc1 (stereo not given),·,·,100,0,i,1.3,·
Clc1ccc(Cc2noc(-c3cccs3)n2)cc1,·,·,103,-9,i,0.95,-1.8
CC(=O)Nc1nonc1NC(=O)c1ccc(F)cc1,3,130,102,-6,i,1.1,-1.1
Cn1c(NC(=O)c2cc(Cl)ccc2Cl)cc(=O)n(C)c1=O,·,·,110,10,i,0.92,-0.9
CCOC(=O)c1ccc(NC(=O)c2c(C)[nH]c(C(=O)OCC)c2C)cc1,11,108,96,-5,i,0.88,-0.7
CCCS(=O)c1nc(C)cc(C)c1S(C)(=O)=O (stereo not given),-178,112,103,-7,i,0.96,·
Clc1ccccc1-c1nnc2n1-c1ccccc1SC2,·,·,103,·,i,1.1,·
O=C(NCCCO)c1cc2ccccc2[nH]1,·,·,101,0,i,1,·
CN(C)c1ccc(/C=C/c2nnnn2-c2ccccc2)cc1,10,119,110,-2,i,0.91,1.2
COc1ccc(N2CCN(C(=O)CCCC3=NS(=O)(=O)c4ccccc4N3)CC2)cc1,20,83,103,0,i,0.99,-1.0
CCN1CCCC1Cn1cnc2c([nH]c3ccc(Cl)cc32)c1=O (stereo not given),3,110,106,5,i,0.75,-0.9
O=C(CCCCCN1C(=O)C2C3C=CC(C3)C2C1=O)Nc1nccs1 (stereo not given),·,·,106,9,i,0.99,-1.7
COCCN1Cc2cccc(C(=O)Nc3ccc(S(=O)(=O)N4CCCCC4)cc3)c2C1=O,·,·,108,·,i,0.95,·
CN(C)C(=O)C1C2NC(=S)N(c3ccccc3)C1(C)Oc1ccccc12 (stereo not given),13,91,60,-1,i,1,·
OC(CN1C2=NCCCN2c2ccccc21)c1ccc(Cl)cc1 (stereo not given),·,·,99,6,i,0.94,-2.1
CCC(Sc1nc(C)cc(C)n1)C(=O)O (stereo not given),-64,83,100,2,i,1,-1.9
CCc1cc2c(SCC(=O)N3CC(=O)Nc4ccccc43)ncnc2s1,-33,77,82,-23,i,0.88,0.4
O=C(NCc1ccncc1)C(=O)N/N=C/c1ccccn1,·,·,109,-2,i,1,·
O=C(CCc1ccc(S(=O)(=O)NCCc2ccccc2)cc1)NCc1ccc2c(c1)OCO2,-38,78,104,6,i,0.83,-1.9
CCOC(=O)C1=CN(Cc2ccc(OC)cc2)C=C(C(=O)OCC)C1c1cccs1,·,·,93,4,i,0.97,·
C/C(=N/NC(=O)c1ccoc1C)C12CC3CC(CC(C3)C1)C2,-13,100,103,-6,i,0.97,-1.2
CCN1CCN(c2cc(C)c3cc(NC(=S)N4CCCC(C)C4)ccc3n2)CC1 (stereo not given),·,·,105,-1,i,0.72,·
Cc1ccc(NC(=O)N2CCN(S(=O)(=O)c3ccccc3)CC2)cc1,·,·,97,-6,i,0.87,·
CC(C)OC(=O)c1sc2nc3c(cc2c1N)C(=O)CCC3,·,·,98,-16,·,·,-1.8
C=CCn1c(SCC(=O)Nc2ccc(C(=O)OC(C)C)cc2)nnc1-c1cccs1,0,85,116,-4,i,0.91,-2.0
CCCCCCOc1ccc(N2C(=O)CC(N3CCN(CCN=CC4=C(O)CC(C)(C)CC4=O)CC3)C2=O)cc1 (stereo not given),·,·,107,-1,i,1.1,·
COc1ccc(O)c(/C=N/N=C2/C(=O)Nc3ccccc32)c1,·,·,97,-2,i,0.97,·
CC(C)CCNC(=O)[C@H](CC(C)C)NC(=O)[C@H]1O[C@@H]1C(=O)O,-29,122,103,-11,i,0.76,1.0
COc1cc2c(C)nc3c(cnn3-c3ccccc3)c2cc1OC,·,·,98,-7,i,0.87,·
Cc1cc(NC(=O)c2ccc(N3C(=O)CCC3=O)cc2)no1,20,64,103,-15,i,0.89,-2.3
OC(COc1ccc(CNCc2cccnc2)cc1)CN1CCc2ccccc2C1 (stereo not given),10,131,116,-3,i,0.9,·
COc1ccc(CCNC(=S)Nc2ccccc2C)cc1,-35,240,99,-6,i,0.84,-0.9
OCCN1CCN(CCSc2ccccc2)CC1,6,119,102,-8,i,0.97,-1.4
Cc1ccc(S(=O)(=O)NCCSc2nnnn2-c2ccc(C(N)=O)cc2)cc1,·,·,98,-3,i,0.96,-0.9
CCOC(=O)c1[nH]c2ccccc2c1NC(=O)c1nonc1C,0,155,99,-8,i,0.88,-1.5
CN(C)NC(=O)C12CCC(C)(C(=O)O1)C2(C)C (stereo not given),-20,99,103,-2,i,1.1,·

# Molecules above containing an NH in an aromatic ring, in the order listed:
SMILES,INS promoter inh,INS promoter inh cell count,RGS16-Gao,PKD1 inh,HSV replic up,HSV replic up primary fold,GALR2 ag
COc1ccc(C2CC(c3c(-c4ccccc4)c4cc(Cl)ccc4[nH]c3=O)=NN2S(C)(=O)=O)cc1OC (stereo not given),15,134,65,5,i,0.78,0.6
Cc1ccc(NC(=O)C(=O)NCCc2c[nH]c3ccccc23)c(C)c1,22,79,96,-6,i,0.92,·
CCOC(=O)c1c(C)cc(C)[nH]c1=O,·,·,104,-5,i,1,·
COc1ccc(S(=O)(=O)N(Cc2ccccc2)Cc2nc3ccccc3c(=O)[nH]2)cc1,·,·,99,5,i,0.86,-0.9
COC(=O)C(Cc1c[nH]c2ccccc12)N1CCS(=O)(=O)CC1 (stereo not given),26,122,99,0,i,0.89,·
CCOC(=O)c1ccc(NC(=O)c2c(C)[nH]c(C(=O)OCC)c2C)cc1,11,108,96,-5,i,0.88,-0.7
O=C(NCCCO)c1cc2ccccc2[nH]1,·,·,101,0,i,1,·
CCN1CCCC1Cn1cnc2c([nH]c3ccc(Cl)cc32)c1=O (stereo not given),3,110,106,5,i,0.75,-0.9
CCOC(=O)c1[nH]c2ccccc2c1NC(=O)c1nonc1C,0,155,99,-8,i,0.88,-1.5

# Rows were taken by chance (roughly 1.2% active in at least one column).
